Screens: PubChem BioAssay, National Center for Advancing Translational Sciences (NCATS)
HPGD inh: qHTS Assay for Inhibitors of HPGD (15-Hydroxyprostaglandin Dehydrogenase); 15-hydroxyprostaglandin dehydrogenase [NAD(+)] (Homo sapiens), P15428; purified HPGD, NADH fluorescence kinetic, PGE2 substrate; Potency, µM, for inactives: at the top dose activity change, negative = inhibition, hits mostly inhibitors; actives 4.3% (n = 150,000); AID 894, 2007; active = well fitted inhibition curve with a large enough effect (not every such curve was filed as active); inconclusive = small, poorly fitted or top-dose-only effect, or another doubt; inactive = no such curve, though single readings can be large or run the other way;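 further: top concentration of the series not given in the record; plate controls included wells without enzyme; inactives centre near -10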
Target sequence (P15428 whole entry, looked up): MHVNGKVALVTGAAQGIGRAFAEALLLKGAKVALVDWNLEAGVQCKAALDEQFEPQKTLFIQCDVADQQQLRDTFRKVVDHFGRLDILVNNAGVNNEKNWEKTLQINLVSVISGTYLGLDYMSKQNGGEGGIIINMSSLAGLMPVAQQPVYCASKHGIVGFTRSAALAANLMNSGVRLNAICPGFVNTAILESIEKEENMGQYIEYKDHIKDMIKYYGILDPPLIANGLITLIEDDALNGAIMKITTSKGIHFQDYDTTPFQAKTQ
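NADH formation kinetics: reaction with 30 uM PGE2 and 1 mM NAD+ (final), 20 nM enzyme, Tris-HCl pH 8 with Tween 20, after 15 min compound preincubation at room temperature. Fluorescence change, last versus first of five reads.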
* = called active by the depositor; ? = inconclusive; & = joins results of further samples. On the % scale 0 is the no-effect control and ±100 the full control effect; potency means the concentration at half of the fitted maximal effect.

SMILES | HPGD inh
CCCCN(C(=O)NC(=O)Nc1cccc(C)c1C)S(C)(=O)=O | -4%
O=C(CN1C(=O)c2cccc3cccc1c23)N1CCN(Cc2ccc3c(c2)OCO3)CC1 | -4%
O=C(NN1c2ccccc2CCc2ccccc21)c1ccccc1Br | -7%
CCOC(=O)N1CCC(N2C(=O)c3ccccc3C2Nc2ccc3c(c2)OCCO3)CC1 (stereo not drawn) | -22%
COc1ccc(Cc2nc3ccc(S(=O)(=O)N4CCOCC4)cc3[nH]2)cc1OC | -9%
O=C(CSc1nccc(-c2ccc(Br)cc2)n1)NCCc1ccccc1 | -13%
CCOC(=O)Nc1ccc(S(=O)(=O)Nc2cc(C)nc(C)n2)cc1 | -3%
O=C(NCc1cccc(C(F)(F)F)c1)c1cccc(Cl)c1Cl | -9%

The closing 7 entries of the part before lead into the next:
SMILES | HPGD inh
O=C(CN1C(=O)c2cccc3cccc1c23)N1CCN(Cc2ccc3c(c2)OCO3)CC1 | -4%
O=C(NN1c2ccccc2CCc2ccccc21)c1ccccc1Br | -7%
CCOC(=O)N1CCC(N2C(=O)c3ccccc3C2Nc2ccc3c(c2)OCCO3)CC1 (stereo not drawn) | -22%
COc1ccc(Cc2nc3ccc(S(=O)(=O)N4CCOCC4)cc3[nH]2)cc1OC | -9%
O=C(CSc1nccc(-c2ccc(Br)cc2)n1)NCCc1ccccc1 | -13%
CCOC(=O)Nc1ccc(S(=O)(=O)Nc2cc(C)nc(C)n2)cc1 | -3%
O=C(NCc1cccc(C(F)(F)F)c1)c1cccc(Cl)c1Cl | -9%
Cc1onc(-c2ccccc2Cl)c1C(=O)N1CCCCC1C(=O)O (stereo not drawn) | 0%
Cc1ccc2c(C(=O)CN3CCSCC3)c(C)[nH]c2c1 | -16%
Cc1nn(C)cc1/C=N/NC(=S)Nc1ccc(Cl)cc1Cl | -20%
CCN(CC)c1ccc([N+](=O)[O-])cc1/C=N/NC(=O)CC#N | -16%
CCN1CCN(C(=O)c2cc3sccc3n2CC(=O)c2ccccc2)CC1 | 1%
Cc1ccc(-c2ccc(=O)n(CC(=O)NCCCN3CCCCC3)n2)cc1 | ?
O=[N+]([O-])c1ccc(-c2cnc(SC(c3ccccc3)c3ccccc3)[nH]2)cc1 | ?
COC(=O)C/C=C/[C@@H](C)[C@@H](/C=N/O[C@@H](C)c1cn([C@H](CO)Cc2ccccc2)nn1)NS(=O)(=O)c1ccc(C)cc1 | -2%
Cc1nc2ccccc2n1/N=C/c1ccc([N+](=O)[O-])s1 | -4%
Cc1ccccc1C(=O)Nc1nnc(-c2ccc(C(C)(C)C)cc2)s1 | -16%
N#Cc1nc(Cc2cccc3ccccc23)oc1NCCN1CCCCC1 | -8%
O=C(COC(=O)c1cccs1)NCc1ccco1 | -12%
CCOC(=O)N1CCC(=C2c3ccc(Cl)cc3CCc3cccnc32)CC1 | -16%&-11%&-7%&8%
CC1CC(c2ccccc2)n2nc(NC(=O)c3cccs3)nc2N1 (stereo not drawn) | -12%
CCN(CC(=O)Nc1ccc2c(c1)OCCO2)C(=O)c1cccc(S(=O)(=O)N2CCOCC2)c1 | -6%
O=C(CSc1nccc2ccccc12)N1CCN(c2ccccn2)CC1 | -14%
CC(=O)Oc1ccc(N2C(=O)C3C4C=CC(C5CC45)C3C2=O)cc1[N+](=O)[O-] (stereo not drawn) | -29%
COc1cccc(C2CC(=O)Nc3cc(OC)c(OC)c(OC)c32)c1OC (stereo not drawn) | -1%
CCOC(=O)c1nnn(-c2nonc2-n2cccc2)c1C | ?
CCN(CC)CCCC(C)n1c(-c2ccccc2)nc2c(NCc3ccccc3)nc(C)nc21 (stereo not drawn) | ?
O=C(c1noc2c1CCCC2)N1CCN(C(c2ccccc2)c2ccccc2)CC1 | 1%
O=C(NC1CC1)C1CCN(c2ccc(S(=O)(=O)N3CCOCC3)cc2Cl)CC1 | 25µM*
CCOCCCNC(=S)N1C2CCC1CC(NC(=O)NC1CCCCC1)C2 (stereo not drawn) | -7%
Cc1ccc(-c2c(C#N)c(N)nc3c2CCCCCC3)o1 | -25%
O=C(C1CCN(Cc2ccc(F)cc2)CC1)N(CCO)Cc1ccccc1 | 1%
Clc1ccc(CSc2nnc(/C=C/c3ccccc3)o2)cc1 | ?
Cc1ccc(S(=O)(=O)N2CCN(C(=O)c3cc(=O)[nH]c4ccccc34)CC2)c(C)c1 | -27%
COc1ccc(NC(=O)CNCCC2=CCCCC2)cc1 | -9%
COc1ccc(OCCn2c(NC(=O)c3ccco3)nc3ccccc32)cc1 | -17%
CC(=O)Nc1ccc2[nH]c(C)c(CC=C(Cl)Cl)c(=O)c2c1 | -18%
CSc1ccc(Cl)c(C(=O)NCc2ccco2)c1 | 16µM*
CC1(C)Cc2c(c(=S)nc(-c3ccccc3)n2CCOCCO)CO1 | -14%
CC(=O)N1CCN=C1SCc1ccccc1Cl | -12%
Clc1ccc(C=NC23CN4CN(CN(C4)C2)C3)cc1 | -3%
CCC(=O)n1nc(-c2cccnc2)nc1NCc1ccc(OC)cc1 | -8%
Cc1cccc(N2C(=O)C(Oc3ccc(Cl)cc3Cl)C2C(=O)O)c1C (stereo not drawn) | -15%
Cc1ccccc1Cn1cc(NC(=O)c2nn(C)cc2Cl)cn1 | ?
Cc1ccc(NC(=O)Cc2noc3ccccc23)nc1 | 1%
Cc1cc(Nc2ccc3c(c2)OCCO3)c2cccc(C)c2n1 | 0%
CCNC(=O)COc1ccc(Br)cc1Cl | -22%
COc1ccc(NC(=S)Nc2cccc3cnccc23)cc1 | -16%
CCOc1ccc(S(=O)(=O)NCc2ccccn2)cc1 | -15%
O=C(NC(=S)Nc1nc(-c2ccc(Br)cc2)cs1)c1cccnc1 | -13%
Cc1ccc(S(=O)(=O)N2CCN(S(=O)(=O)N3CCCCC3)CC2)cc1 | -7%
COc1ccc(CSc2nnc(SCc3ccc([N+](=O)[O-])cc3)s2)cc1 | -1%
Cc1ccccc1NC(=O)c1ccc(COc2ccc3c(C)cc(=O)oc3c2)cc1 | ?
CCCCN(C(=O)NC(=O)Nc1ccccc1OC)S(C)(=O)=O | -7%
CC/C(C)=C1\SC(N2CCOCC2)=NC1=O | -10%
Cc1ccc(NS(=O)(=O)c2ccc(Cl)s2)cc1S(=O)(=O)N(C)C | 2%
COc1ccccc1Nc1nc(N)nc(CN(C)C2CCCCC2)n1 | -5%
CCN1CCN(C(=O)CN2C(=O)c3cccc4cccc2c34)CC1 | -13%
CCOC(=O)c1ccc(NC(=O)CN(c2ccc(C)cc2)S(=O)(=O)c2c(C)n[nH]c2C)cc1 | -8%
O=C1CC(c2ccccc2)c2ccc(O)cc2O1 (stereo not drawn) | -1%
CCOC(=O)c1c(CNCCN(CC)CC)n(C)c2cc(Br)c(OC)cc12 | -15%
Cc1nn(-c2cc(N(S(C)(=O)=O)S(C)(=O)=O)c(Cl)cc2Cl)c(=O)n1C | 1%
O=C(c1ccc2c(=O)n(Cc3ccc4c(c3)OCO4)c(=S)[nH]c2c1)N1CCCCC1 | 0.4µM*

Carrying on.
SMILES | HPGD inh
CCc1nc(SCC(=O)N2CC(=O)Nc3ccccc32)c2c(C)c(C)sc2n1 | -24%
O=C(N/C=C\c1ccccc1)NCc1ccc(Cl)cc1 | -3%
COCCn1c(SCC(=O)Nc2cc(C)cc(C)c2)nnc1C(C)C | -15%
O=C(c1ccc(S(=O)(=O)Cc2cc(F)ccc2F)c([N+](=O)[O-])c1)N1CCCCC1 | 14µM*
O=C(CCC(=O)N(CC(=O)NC1CCCCC1)Cc1ccco1)Nc1nccs1 | -10%
Cc1noc(NS(=O)(=O)c2ccc(NC(=O)CSc3nc4c(cc3C#N)CCC4)cc2)c1C | 32µM*
Fc1ccccc1NC(=S)N1CCN(Cc2ccccc2)CC1 | -4%
C/C(=N\Nc1nc2ccccc2s1)c1ccc2c(c1)OCO2 | -18%
COc1cccc(OCC(O)CO)c1 (stereo not drawn) | 5%
Cc1cc(NC(=O)c2ccc3c(c2)C(=O)N(C)C3=O)no1 | -27%
O=C(O)/C(Cc1ccnc2ccccc12)=N\O | 2%
O=C(NCc1ccco1)C(c1ccccc1)N(C(=O)Cc1cccs1)c1ccccc1F (stereo not drawn) | -12%
Cc1ccccc1C(=O)Nc1cccc(NC(=O)Cn2cnc3c(=O)n(C)c(=O)n(C)c32)c1 | -8%
O=C(CCc1nc2ccccc2c(=O)[nH]1)OCC(=O)N1CCN(S(=O)(=O)c2ccccc2)CC1 | 3%
Cc1ccnc(NC(=O)CCC(=O)N(CC(=O)NC2CCCCC2)CC2CCCO2)c1 (stereo not drawn) | -7%
CN(CC(=O)NC1CCCCC1)S(=O)(=O)c1ccc(Br)s1 | -2%
O=C(Nc1cccn(Cc2c(Cl)cccc2Cl)c1=O)c1ccc(Cl)cc1 | -18%
COc1ccc2c(C)cc(SCC(=O)Nc3ncc(Cl)cc3Cl)nc2c1 | ?
CC(C)NC(=O)c1onc(CSc2ccccc2)c1C(=O)O | -5%
CC1(C)S[C@@H]2[C@H](NC(=O)C(N)c3ccccc3)C(=O)N2[C@H]1C(=O)O (stereo partly drawn) | -15%
CCOC(=O)c1c(NC(=O)COC(=O)c2cc(OC)c(OC)cc2[N+](=O)[O-])sc(C)c1CC | -9%
COc1ccc(OC)c(/C=N/NC(=O)c2cc[n+](CC(=O)c3ccccc3)cc2)c1 | -9%
COc1ccc(-c2ccc(S(=O)(=O)N3CCOCC3)cc2)cc1 | -25%
O=c1c2ccccc2nc2n1C(CSc1ccc(F)cc1)CN2 (stereo not drawn) | 1%
C=CCOC(=O)C1=C(C)NC(=S)NC1c1cccs1 (stereo not drawn) | -7%
Nc1c(C(=O)NC2CCCCC2)c2nc3ccccc3nc2n1/N=C/c1ccco1 | ?
COc1cc(/C=C/C(=O)Nc2ccc(N3CCCCC3)c(S(=O)(=O)Nc3ccccc3Cl)c2)cc(OC)c1OC | ?
COc1ccc(/C=C/C(=O)OCC(=O)N2CC(=O)Nc3ccccc32)cc1 | -16%
CC1(C)CC(=O)C2(CC3=C(CC(C)(C)CC3=O)O2)C(=O)C1 | -10%
CCn1c2ccccc2c2cc(/C=N/n3c(C)nnc3C)ccc21 | ?
CCOC(=O)NC(=O)/C(C=Nc1ccc(Cl)c(Cl)c1Cl)=C(\C)O | -9%
O=C(CNC(=O)C(c1ccccc1)c1ccccc1)N/N=C/c1ccc(O)c([N+](=O)[O-])c1 | -15%
CCOC(=O)N1CCN(CC(=O)Nc2cc(OCC)ccc2OCC)CC1 | -7%
O=C(NC(NC(=S)N1CCOCC1)C(Cl)(Cl)Cl)c1ccc(Cl)cc1 (stereo not drawn) | -12%
O=[N+]([O-])c1ccccc1N/N=C\c1ccccc1Cl | -11%
Cc1ccc(-n2c3c(c(=O)[nH]c2=O)C(C(F)(F)F)(C(F)(F)F)NC(=O)N3)cc1 | -8%
CC(C(=O)N1CCOCC1)(c1ccccc1)c1ccccc1 | 2%
CCC(CC)c1nc(C#N)c(NC(C)c2ccccc2)o1 (stereo not drawn) | -28%
CCCCOC(=O)Nc1nnc(-c2ccccc2OC)s1 | -18%
c1ccc(Cc2nnc3sc(-c4ccco4)nn23)cc1 | -30%
O=C(N/N=C/c1ccc(OC(=O)c2ccccc2)cc1)c1ccc(CN2CCOCC2)cc1 | -13%
O=C(CN1CCC(C(O)(c2ccccc2)c2ccccc2)CC1)Nc1ccccc1 | -16%
O=c1[nH]cnc2cc(-c3ccccc3)sc12 | -19%
CCC1(CC)C(=O)NC(=O)NC1=NCCc1c[nH]c2ccccc12 | 3%
COc1cccc(C(=O)Nc2ncc3c(n2)CC(C)CC3=O)c1 (stereo not drawn) | -7%
Cc1ccc(N=C2S/C(=C\c3cn(CC(=O)O)c4ccccc34)C(=O)N2C)cc1 | -13%
CCCOc1cccc(C(=O)N(Cc2ccc(OC)c(OC)c2)C2CCS(=O)(=O)C2)c1 (stereo not drawn) | ?
COc1ccc(C(=O)N2CCC3(CCN(Cc4ccccc4)CC3)CC2)cc1 | -3%
COc1c(F)c(F)c(C(=O)Nc2ccccc2N2CCN(C(=O)C(C)C)CC2)c(F)c1F | -15%
c1ccc2[nH]c(CSc3nc4ccccc4s3)nc2c1 | -19%
O=c1c2c(nc3nc[nH]n13)CCC2 | -8%
CC(C)=C1C2CCC1C1C(=O)N(c3nc(-c4ccccc4)c(C)s3)C(=O)C21 (stereo not drawn) | -15%
CN=CC1=C(O)c2ccccc2C1=O | -7%
CC#CCOC(=O)c1c(C)nc2sc3c(c2c1N)CC[C@@H](O)C3 | -11%
CC1N(O)C(c2ccc(Cl)cc2Cl)N(O)C1(C)C (stereo not drawn) | -3%
COC(=O)c1c(NC(=O)CSc2nnc(-c3ccco3)n2C)sc(C)c1C | -10%

(more compounds)
SMILES | HPGD inh
Cc1cc(NC(=O)CSc2nnc(C3COc4ccccc4O3)o2)no1 (stereo not drawn) | -6%
CC1CCCN(C(=O)c2ccncc2)C1 (stereo not drawn) | -30%
COc1ccc(/C(O)=C2/C(=O)C(=O)N(CCCC(=O)O)C2c2ccc(OC)cc2)cc1 (stereo not drawn) | -9%
CCC(=O)NC(C)C(c1cccs1)N1CCN(c2ccccc2)CC1 (stereo not drawn) | -3%
Nc1nc(Nc2ccc(Cl)cc2)nc2ccccc12 | ?
COc1ccc(S(=O)(=O)Nc2ccc(F)c(Cl)c2)cc1OC | -15%
CN(C)C(=O)CSc1nnc(CCCCCNC(=O)OC(C)(C)C)o1 | -20%

Only part of the results is shown; the hit share may differ from the screen's.
